D2 PAM = potentiates the human D2 dopamine receptor allosterically; P14416; potentiation, % (no concentration beside the values); DiscoveRx D2 beta-arrestin cells, luminescence, 90 min; 100% = 57 uM dopamine signal; 360,000 tested, 0.23% active; active = potentiation of 50% or more; inconclusive = 30% to 50%; inactive = 30% or less;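 also: compound concentration not given in the record; tested on top of an EC20 dose of dopamine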
Target sequence (P14416 whole entry, looked up): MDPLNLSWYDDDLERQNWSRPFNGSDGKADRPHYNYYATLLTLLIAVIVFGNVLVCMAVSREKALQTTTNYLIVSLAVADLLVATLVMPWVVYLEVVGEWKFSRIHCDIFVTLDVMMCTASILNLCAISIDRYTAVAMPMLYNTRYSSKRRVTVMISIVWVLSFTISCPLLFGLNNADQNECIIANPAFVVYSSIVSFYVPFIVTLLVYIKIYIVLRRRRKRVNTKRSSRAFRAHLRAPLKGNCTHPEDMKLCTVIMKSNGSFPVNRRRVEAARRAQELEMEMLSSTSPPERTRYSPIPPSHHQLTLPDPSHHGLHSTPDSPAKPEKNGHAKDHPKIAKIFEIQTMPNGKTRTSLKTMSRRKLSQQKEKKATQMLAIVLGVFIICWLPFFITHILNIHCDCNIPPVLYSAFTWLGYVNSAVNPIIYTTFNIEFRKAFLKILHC
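PathHunter beta-arrestin assay in DiscoveRx D2 cells. Compounds were added with an EC20 of dopamine (50 nM final) for 90 min at 37 deg C. Luminescence was read 1 h after detection reagent, with 57 uM dopamine as the EC100 control.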
TRPML1 inh = inhibitors of human TRPML1 channel. TRPML1-inducible cells, Ca2+ dye fluorescence, FDSS; stronger effect = lower value; inhibition of EC80 agonist-evoked calcium signal. activity change, negative = inhibition, % (no concentration beside the values). 390,000 tested, 0.02% active. AID 624415; in the data active means activity change below about -50%; inconclusive means about -30% to -50%; inactive means above about -30%;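 also: stimulus is agonist 54-4 at its EC80 concentration; % is scaled to controls: 0 for no effect and ±100 for the full control effect; compound concentration not given in the record; the text of the record puts the active cut at -80%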
Target sequence (Q9GZU1 whole entry, looked up): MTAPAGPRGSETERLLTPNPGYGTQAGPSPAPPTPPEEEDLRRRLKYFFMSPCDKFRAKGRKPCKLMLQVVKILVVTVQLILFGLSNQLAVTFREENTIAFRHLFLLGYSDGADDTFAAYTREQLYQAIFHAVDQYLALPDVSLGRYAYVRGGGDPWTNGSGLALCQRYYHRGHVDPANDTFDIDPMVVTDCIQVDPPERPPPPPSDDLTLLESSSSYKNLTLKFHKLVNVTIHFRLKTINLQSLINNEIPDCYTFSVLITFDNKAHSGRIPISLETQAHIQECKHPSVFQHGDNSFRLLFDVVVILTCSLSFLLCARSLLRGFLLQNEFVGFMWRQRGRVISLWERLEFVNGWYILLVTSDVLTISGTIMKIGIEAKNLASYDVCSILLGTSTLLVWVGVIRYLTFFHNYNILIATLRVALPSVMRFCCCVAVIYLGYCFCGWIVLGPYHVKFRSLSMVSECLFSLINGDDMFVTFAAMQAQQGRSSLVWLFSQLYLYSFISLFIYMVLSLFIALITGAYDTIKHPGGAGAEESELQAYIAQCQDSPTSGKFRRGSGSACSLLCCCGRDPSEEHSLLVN
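Tet-induced TRPML1-DL cells loaded with Ca8 no-wash calcium dye were read kinetically on FDSS. Compound addition was followed by EC80 agonist 54-4 (4 uM final); inhibition was read over 110 s.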
Six1-Eya2 inh = Six1/Eya2 interaction inhibition; Q15475+O00167; AID 651725; AlphaScreen GST-Six1/His-Eya2 binding, biochemical; stronger effect = lower value; control for the full effect not named in the record; activity change, % (test concentration not listed); 360,000 tested, 0.56% active; in the data active = activity change below about -65%; inconclusive = about -30% to -65%; inactive = above about -30%; also: % is scaled to controls: 0 for no effect and ±100 for the full control effect; compound concentration not given in the record
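Six1/Eya2 binding was read as AlphaScreen signal after compounds were pinned into GST-Six1 plus His-tagged Eya2 (5X stock 250/500 nM) in pH 8.0 Tris/NaCl/TCEP buffer, beads added, then incubated 1 h, 37 C, dark.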
D2 agonist = activates the human D2 dopamine receptor; DiscoveRx PathHunter D2 beta-arrestin, luminescence, 90 min; 100% = 57 uM dopamine signal; activation, % (concentration not given with the values); 360,000 tested, 0.084% active; in the data active = activation above about 40%; inconclusive = about 15% to 40%; inactive = below about 15%; also: compound concentration not given in the record; the text of the record calls up to 30% inactive
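Agonist mode: compounds alone added to overnight-plated D2 PathHunter cells for 90 min at 37 C, with 57 uM final dopamine (EC100) defining full response. Beta-arrestin recruitment detected by chemiluminescent reagent, read after 1 h at ambient temperature.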
TRPML1 ag = human mucolipin-1 channel agonism. Q9GZU1. TRPML1-expressing cells, Ca2+ dye fluorescence, FDSS; host cell line not named in the record; reference of the full effect not given here. activation, % (concentration not given with the values). 410,000 tested, 0.12% active. AID 624414; in the data active = activation above about 50%; inconclusive = about 30% to 50%; inactive = below about 30%; also: 0% is about no effect; the text of the record puts the active cut at 80%
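Calcium fluorescence on an FDSS kinetic reader gave the read-out. Tet-induced TRPML1-DL cells were plated overnight, dye-loaded (Ca8 with quencher, 45-90 min, room temperature, dark), then read 110 s after compound addition, and again 110 s after 4uM final 54-4 (EC80).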
PINK1 modulator = PINK1 expression modulation. PINK1 immunofluorescence, high-content cytometry, 24 h. Potency, µM (titrated, usually from 76.6 µM), for inactives: at the top dose activation (PINK1 increase), hits mostly activators. 410,000 tested, 0.2% active. AID 624263; active = well fitted activation curve with a large enough effect; inconclusive = small, poorly fitted or top-dose-only effect; inactive = flat fitted curve, though single readings scatter; cell line not stated here;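 also: potency is read from the fitted curve at half-maximal effect; % of control where 0% means no effect; nearly all actives have a fitted effect of over 65% in size; a mitochondrial uncoupler was the plate control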
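Stable cell line treated 24 h with compounds at 5 concentrations (CCCP controls), then fixed and immunostained for PINK1 plus nuclear and cell stains; PINK1 immunofluorescence quantified by laser-scanning microplate cytometry.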
* = called active by the depositor; ? = inconclusive; . = not tested or not shown; & = joins results of further samples; [ ] = another dose, or the depositor's remark.

SMILES	D2 PAM	TRPML1 inh	Six1-Eya2 inh	D2 agonist	TRPML1 ag	PINK1 modulator
CCCC(=O)Nc1cccc(Oc2ccc3c(c2)C(=O)NC3=O)c1	-1	10	-3	-4.9	1.2	1.6%
CC(C)N(C(=O)Cn1cc(S(=O)(=O)CC(=O)NC2CCCCC2)c2ccccc21)C(C)C	-6	-1	10	-0.3	-0.5	2.0%
CCOc1ccc(CNc2nc3ccccc3n2C)cc1	-68	9	10	-4.9	-0.1	-0.4%
N#Cc1ccc(COC(=O)c2cc(=O)c3ccccc3o2)cc1	-12	-2	10	1.1	1.3	-0.5%
Cn1cnc(C(=O)NC2CCN(C(=O)OC(C)(C)C)CC2)c1C(=O)NC1CCN(C(=O)OC(C)(C)C)CC1	-12	7	7	-0.5	-0.7	2.0%
CCCc1nc2ccccc2c(=O)n1/N=C/c1ccc(O)cc1O	-10	-5	-20	-6.1	0.2	-0.4%
O=C(OCc1ccc(Cl)cc1)c1cnccn1	2	30	-2	-2.7	-0.3	1.3%
COc1ccc(-c2n[nH]c(=S)n2Cc2ccccc2)cc1	-3	14	-5	-3.0	2.2	0.2%
COc1ccc(/C=N/N2CCN(c3ccccc3)CC2)cc1Br	0	-10	-4	-1.9	-0.1	1.6%
CCC1CCC/C1=N\NC(=O)c1ccoc1C (stereo not given)	2	3	1	-1.1	-0.9	0.5%
Cc1cccc(CN2CCC(CNC(=O)CCNC(=O)Cn3ccc4ccccc4c3=O)CC2)c1	-17	7	0	-2.2	3.3	-2.5%
CCN1C(=O)[C@H]2[C@@H](c3ccc(-c4ccc5c(c4)OCO5)c(OC)c3)N[C@@](C)(C(=O)OC)[C@H]2C1=O	-3	0	-3	0.7	-0.5	1.8%
COc1cccc(-n2c(CCn3nc(C)c([N+](=O)[O-])c3C)n[nH]c2=S)c1	-6	1	-4	-3.8	0.1	-1.4%
CCOC(=O)c1c(C)nn(-c2ncccc2NC(=O)CCC(=O)O)c1C	-3	-18	2	-1.5	-0.1	-1.5%
O=C(NC(c1ccc(F)cc1)c1ccc2ccccc2n1)C1CCN(Cc2ccc(Oc3ccccc3)cc2)CC1 (stereo not given)	-23	.	-14	-9.2	1.9	4.2%
O=C(CC1SC(N2CCCCC2)=NC1=O)Nc1cccc(C(=O)N2CCCC(C(F)(F)F)C2)c1 (stereo not given)	-3	-3	1	1.4	0.0	-0.5%
C=CCc1c(C)nc2c(OC)cccc2c1Cl	-24	-9	-12	-4.3	0.0	-1.6%
Cc1ccc(Cn2c(SCC(=O)NCC3CCCO3)nc3c2c(=O)n(C)c(=O)n3C)cc1 (stereo not given)	-4	-20	1	-1.4	0.2	0.8%
Cc1ccccc1CC(=O)NC1CCN(C)CC1	-6	-11	2	4.1	0.3	1.5%
Cc1nn(Cc2ccc(Cl)cc2)c(C)c1N	-2	5	-6	1.1	-0.2	-0.6%
COc1cc(CN2C[C@@H](CO)O[C@@H](n3cnc4c(NCc5ccncc5)ncnc43)C2)cc(OC)c1OC	5	.	1	-3.8	0.7	-0.8%
Cc1cc(C(=O)CN2C(=O)C3CC=CCC3C2=O)c(C)n1-c1ccccc1 (stereo not given)	-4	-10	-11	-1.4	0.7	2.4%
CCS(=O)(=O)N1CCC(C(=O)NCc2cc(OC)ccc2OC)CC1	-2	10	0	-2.7	0.0	0.7%[38.3 µM]
CCNC(=O)/C(=C\c1ccc2c(c1)OCO2)NC(=O)c1ccc(Br)cc1	1	-4	0	-2.5	0.0	3.5%[38.3 µM]
Cc1cccc(CN2CCN(C3CN(Cc4cn(Cc5ccc(F)cc5)nn4)S(=O)(=O)C3)CC2)c1 (stereo not given)	.	.	0	.	-0.7	0.3%
CCCC(CCC)C(=O)Nc1c[nH]c(=O)[nH]c1=O	-20	-2	-1	-4.6	-0.3	.
COc1cccc(C(=O)Nc2cc(C)on2)c1	-17	9	4	-8.5	0.1	3.8%
O=C(NNC(=O)c1cccs1)c1ccc(Cl)c(S(=O)(=O)N2CCCC2)c1	-3	-20	-6	-1.9	-0.1	2.3%
Cc1cn([C@H]2C[C@H](O)[C@@H](CNCc3cnc(N4CCOCC4)nc3)O2)c(=O)[nH]c1=O	3	-6	6	-8.2	-0.2	3.1%
CCOC(=O)NC(=S)Nc1cccc(NC(=S)NC(=O)OCC)c1	-8	12	-6	1.7	-0.2	1.2%
Cc1ccc(S(=O)(=O)Nc2ccc3c(c2)nc(CCN2CCCC2)n3C)cc1	-28	-6	4	-2.3	2.4	0.0%
COc1ccc(Cl)cc1C(=O)NN=C1CCCC1	-5	27	-11	-4.6	-0.1	0.8%
O=[N+]([O-])c1ccc(N2CCN(C(=S)Nc3cccc(F)c3)CC2)cc1	-9	-12	-14	9.9	0.7	-0.1%
Cc1ccc(-n2cccn2)c([C@@H]2C[C@H]3CN(C)C(=O)[C@]34CCCN24)c1	-29	9	-14	-0.7	-0.7	0.3%
COc1cc(S(=O)(=O)N(Cc2ccccn2)Cc2ccco2)ccc1-n1cnnn1	-14	-8	-1	-2.5	0.8	0.2%[38.3 µM]
O=C(NCc1ccncc1)C(=O)NCC(c1ccco1)N1CCN(c2ccccc2)CC1 (stereo not given)	0	.	-2	14	.	1.0%
CC1(C)C2CC=C(/C=N/NC(=O)C3CC3)C1C2 (stereo not given)	-16	12	5	-5.4	1.3	1.3%
COc1cccc(-c2nc(SCC(=O)Nc3ccc4c(c3)OCCO4)c(-c3ccc(C)cc3)[nH]2)c1	.	7	.	.	2.0	-1.1%
CC(NS(C)(=O)=O)C(c1cccs1)N1CCN(c2ccccc2)CC1 (stereo not given)	-5	13	1	-2.6	0.5	-1.6%[38.3 µM]
S=c1[nH]nc(-c2ccco2)n1-c1ccc(Cl)cc1	-7	1	-3	-0.8	0.2	0.2%
Cc1ccc2[nH]c3c(NCCCN4CCCC4=O)ncnc3c2c1	-17	19	-14	0.8	-1.0	1.7%
CCOC(=O)C1CCN(C(=O)c2ccc(NS(=O)(=O)c3ccc4[nH]c(=O)[nH]c4c3)cc2)CC1	-1	-2	2	-3.7	-0.7	-0.5%
O=C(NCc1ccccc1CN1CCCC1)c1ccc(Cl)c(S(=O)(=O)N2CCCC2)c1	-32	-17	3	-1.9	0.3	-2.2%
Cc1ccc(N2C(=O)N(CC(=O)Nc3cccc([N+](=O)[O-])c3C)C(=O)C2C)cc1 (stereo not given)	-10	18	2	-4.0	2.0	-1.4%
CC1CCC(C(C)C)C(OC(=O)C[n+]2cc(-c3ccc(Cl)cc3)n3c2CCC3)C1 (stereo not given)	-30	.	-1	-1.0	.	?

2 successive compounds already listed, for reference:
SMILES	D2 PAM	TRPML1 inh	Six1-Eya2 inh	D2 agonist	TRPML1 ag	PINK1 modulator
Cc1ccc(N2C(=O)N(CC(=O)Nc3cccc([N+](=O)[O-])c3C)C(=O)C2C)cc1 (stereo not given)	-10	18	2	-4.0	2.0	-1.4%
CC1CCC(C(C)C)C(OC(=O)C[n+]2cc(-c3ccc(Cl)cc3)n3c2CCC3)C1 (stereo not given)	-30	.	-1	-1.0	.	?

Remaining list, next part.
SMILES	D2 PAM	TRPML1 inh	Six1-Eya2 inh	D2 agonist	TRPML1 ag	PINK1 modulator
COCCNc1nc(SCC(=O)N2CCN(c3ccccc3OC)CC2)nc2ccccc12	-4	-5	-1	-3.2	3.7	-1.4%[38.3 µM]
CC1=C(C(N)=O)C(c2ccc3c(c2)OCO3)n2nc(-c3cccc(C)c3)nc2N1 (stereo not given)	1	4	-2	1.2	-1.0	1.7%
COC(=O)CCCCC1SCC(NC(=O)c2ccccc2)C1OC(C)=O (stereo not given)	-9	-8	10	-4.4	0.3	-0.6%
CSc1ccccc1C(=O)NC1CCCCC1	-7	-10	2	1.0	0.1	2.1%[38.3 µM]
COc1ccc(-c2csc(Nc3cc(C)ccn3)n2)cc1C	-11	1	-3	-1.8	1.5	5.4%
Cc1ccc(C(C)C)c(OCC(=O)NCC2(N(C)C)CCCCC2)c1	.	15	.	.	2.0	2.6%
CSc1nnc(CSc2cc(C)nc(N(C)C)n2)o1	-4	3	11	-3.6	-0.3	4.7%
CN1C(=O)C(CC(=O)Nc2ccccc2F)N(NC(=O)c2ccc(Br)cc2)C1=S (stereo not given)	-8	0	11	-2.4	2.0	-1.4%
C(=N\N1CCOCC1)/c1cn(-c2ccccc2)nc1-c1ccccc1	-5	22	-22	0.9	0.1	0.6%
COc1cccc(-c2nn3c(-c4cccc(C)c4)nnc3s2)c1	-5	-1	-10	-1.6	5.1	?
COCc1c(C(=O)OCc2nc(N)nc(Nc3ccccc3C)n2)oc2ccccc12	0	-10	0	-3.8	-0.1	2.8%
COc1cccc(/C=N/Nc2ncnc(N)c2[N+](=O)[O-])c1OC	5	37	-2	-3.2	-0.3	-0.9%
O=C(Cn1nc(C(F)(F)F)c2c1CCCC2)Nc1ccc2c(c1)OCO2	-12	29	-5	-3.6	-0.2	4.9%
COc1ccc(CNC(=O)CN2C(=O)NC3(CCCCCC3)C2=O)cc1OC	-1	11	3	-0.4	0.6	1.0%
Cc1ccc2nc(C)c3c(c2c1)N(c1ccccc1)CC3	-16	2	20	-3.3	1.1	19%
COC(=O)CCc1c[nH]c2ccc([N+](=O)[O-])cc12	-7	-15	-5	-4.2	1.9	-1.6%
O=C(C(NS(=O)(=O)c1cccc2nsnc12)c1ccccc1)N1CCN(c2ccccc2)CC1 (stereo not given)	-5	20	0	-4.0	0.0	-1.0%
COc1cccc2c(=O)c3ccccc3oc12	-7	-8	-25	-1.8	2.7&-1.5	-1.0%
O=C(NCc1ccco1)c1cc(-c2cccc(Cl)c2)on1	-18	-15	2	-3.0	2.9	1.0%[38.3 µM]
CCOC(=O)Cc1csc(NC(=O)CCSc2ccccc2)n1	2	10	4	-1.2	-1.0	1.6%
O=C(NCCNC(=O)c1ccc(-c2cc(Cl)ccc2Cl)o1)c1cnccn1	-16	1	4	-0.3	-0.4	0.6%
CCC(CO)Oc1cc(NCc2ccncc2)c2ncn(C(C)C)c2c1 (stereo not given)	0	6	-4	4.3	0.2	-0.3%
CCCc1cc(=O)[nH]c2nnc(SCC(=O)Nc3ccc4c(c3)OCCO4)n12	-5	14	-8	-7.2	-0.2	-0.9%
CC(Oc1ccc(Cl)cc1Cl)C(=O)NCCCCc1ccccc1 (stereo not given)	18	-1	27	1.8	1.7	?
CCN1C[C@@H]2[C@@H]3C(=O)N(Cc4ccccc4)C(=O)[C@@H]3[C@](C)(C(=O)OC)N2C1=NC	.	-18	9	-1.9	0.1	0.4%

Reprinted at random: 4 records from the list.
SMILES	D2 PAM	TRPML1 inh	Six1-Eya2 inh	D2 agonist	TRPML1 ag	PINK1 modulator
CCOC(=O)Cc1csc(NC(=O)CCSc2ccccc2)n1	2	10	4	-1.2	-1.0	1.6%
COC(=O)CCc1c[nH]c2ccc([N+](=O)[O-])cc12	-7	-15	-5	-4.2	1.9	-1.6%
CCC(CO)Oc1cc(NCc2ccncc2)c2ncn(C(C)C)c2c1 (stereo not given)	0	6	-4	4.3	0.2	-0.3%
O=C(NCCNC(=O)c1ccc(-c2cc(Cl)ccc2Cl)o1)c1cnccn1	-16	1	4	-0.3	-0.4	0.6%

Screening data: PubChem BioAssay, National Center for Advancing Translational Sciences (NCATS)
